motility – Vibrio cholerae motility inhibitors, OD read-out (AID 588778) | Vibrio cholerae motility, OD read-out; higher % means a stronger effect; test concentration not given here; primary cut-off and reference of the scale not given here; strong numbers were not always called active | one-dose inhibition, %; IC50 in µg/mL for titrated hits | 10,000 tested, under 10 active; in the data active = confirmed in a dose series
motility viability – second read-out of motility, no call of its own (marks repeat the call); inhibition, %; measured here: bacterial viability at 10 ug/mL;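 higher means fewer living bacteria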
* hit, by the source's call. Only part of the results is shown; count on the stated rates, not on these rows.

entry	molecule	motility	motility viability
1	O=C(NC1CCCCC1)c1cc(NCc2cccnc2)nc2ccccc12	-7%	-2
2	Cc1cc(NC(=O)COc2cc(C)c(Cl)c(C)c2)c(C)cc1I	5%	-2
3	O=C(CSCc1c(F)cccc1Cl)NNC(=S)NC1CCCCC1	6%	-14
4	O=C(c1ccc(-c2nnc(-c3ccccc3)o2)cc1)n1nnc2ccccc21	11%	2
5	COCCNC(=O)C(C#N)c1ccccc1 (configuration not stated)	-27%	-11
6	N#C/C(=C\c1ccc(O)c(Cl)c1)c1ccccc1	67%	52
7	Cc1cc(OC(C)C(=O)Oc2ccc(F)cc2)ccc1Cl (configuration not stated)	-8%	-4
8	Cc1nn(CCCNC(=S)Nc2cccc([N+](=O)[O-])c2)c(C)c1Br	9%	2
9	CCOC(=O)C1CCCN(C(=S)Nc2cc(OC)c(Cl)cc2OC)C1 (configuration not stated)	9%	7
10	COC(=O)CC1C(=O)NCCN1C(=S)NC(=O)CCCOc1ccc(Cl)cc1Cl (configuration not stated)	-2%	-1

Compounds shown so far that contain nitrogen in an aromatic ring:
entry	molecule	motility	motility viability
1	O=C(NC1CCCCC1)c1cc(NCc2cccnc2)nc2ccccc12	-7%	-2
4	O=C(c1ccc(-c2nnc(-c3ccccc3)o2)cc1)n1nnc2ccccc21	11%	2
8	Cc1nn(CCCNC(=S)Nc2cccc([N+](=O)[O-])c2)c(C)c1Br	9%	2

Additional entries follow.
entry	molecule	motility	motility viability
11	COc1ccccc1C(=O)Nc1ccc(C2(C#N)CCCC2)cc1	8%	6
12	CCOC(=O)c1ccc(NC(=S)NCCOC23CC4CC(CC(C4)C2)C3)cc1	-1%	2
13	N#CC1=C(N)N(c2ccc(Cl)cc2Cl)C2=C(C(=O)CCC2)C1c1ccc(Br)s1 (configuration not stated)	16%	3
14	CC1(C)NC(=O)N(CC(=O)Nc2ccc(Br)cc2)C1=O	29%	4
15	Oc1ccc(Br)c2cccnc12	95%	99
16	O=C(Nc1cccc(Cl)c1)NC(CO)(CO)CO	12%	1
17	Cn1c(SCC(=O)N2CCc3ccccc3C2)nc2ccccc21	26%	4
18	O=C(CSc1nc2ccccc2o1)c1cc2ccccc2oc1=O	5%	-3
19	COc1cc(OC)cc(C2=NCCN2)c1	0%	8
20	CC(C)(C)c1csc(NC(=O)Cn2c(=O)oc3ccccc32)n1	4%	-3

Some of the entries so far, field by field:
[20] CC(C)(C)c1csc(NC(=O)Cn2c(=O)oc3ccccc32)n1
  motility: 4%
  motility viability: -3

[18] O=C(CSc1nc2ccccc2o1)c1cc2ccccc2oc1=O
  motility: 5%
  motility viability: -3

Next section:
entry	molecule	motility	motility viability
21	Cc1cc(=O)oc2cc(NC(=S)NNC(=O)C3(C)CC3(Cl)Cl)ccc12 (configuration not stated)	7%	4
22	Cc1cc(C)nc(NC(N)=NCc2ccco2)n1	7%	5
23	O=C(c1cnn2c(C(F)(F)F)cc(-c3ccco3)nc12)N1CCC2(CC1)OCCO2	-3%	-7
24	O=C(c1ccc(Oc2ccc([N+](=O)[O-])cc2Cl)cc1)N1CCCC1	-14%	-3
25	N#CSCCCOc1ccc(Br)cc1	19%	4
26	Cc1ccc(C)n1-c1cc(C(=O)O)ccc1O	37%	4
27	COc1ccc(Cn2c(=O)cc(C)[nH]c2=S)cc1	0%	-2
28	O=C(CSC1=NCCS1)Nc1ccnc2ccccc12	8%	0
29	CC(C)NC(=S)NNC(=O)C12CC3CC(CC(C3)C1)C2	8%	-6
30	COc1ccc(N2CCN(c3ncnc(N)c3[N+](=O)[O-])CC2)cc1	-4%	-2

Four entries drawn at random from those above:
entry	molecule	motility	motility viability
26	Cc1ccc(C)n1-c1cc(C(=O)O)ccc1O	37%	4
28	O=C(CSC1=NCCS1)Nc1ccnc2ccccc12	8%	0
30	COc1ccc(N2CCN(c3ncnc(N)c3[N+](=O)[O-])CC2)cc1	-4%	-2
21	Cc1cc(=O)oc2cc(NC(=S)NNC(=O)C3(C)CC3(Cl)Cl)ccc12 (configuration not stated)	7%	4

The list continues:
entry	molecule	motility	motility viability
31	N#C/C(=C/c1ccc(O)cc1)c1nc(-c2cc3ccccc3c(=O)o2)cs1	-2%	-5
32	COc1ccccc1NC(=O)C(=O)NCCc1c[nH]c2ccccc12	9%	-2
33	N#Cc1c2c(n3cc4ccccc4cc13)C(=O)c1ccccc1C2=O	-14%	-13
34	CCCNC(=O)c1ccc(NC(=O)OC)cc1	2%	-3
35	COc1cccc(CNC(=S)Nc2cc(C)cc(C)c2)c1	4%	-1
36	NC(=O)CS(=O)(=O)c1nc2ccccc2n1Cc1ccccc1F	-6%	4
37	S=C(NCc1ccco1)Nc1cccc(Cn2cc(Cl)cn2)c1	50%	12
38	Nc1ncnc2nc(SCCOc3ccccc3F)[nH]c12	-17%	-5
39	Cc1ncc([N+](=O)[O-])n1C(=O)c1ccccc1	4%	-3
40	CCOC(=O)N1C(=O)c2ccccc2S1(=O)=O	-5%	-15

The listing continues:
entry	molecule	motility	motility viability
41	Cc1ccc2nc(N/N=C\c3ccc([N+](=O)[O-])o3)nc(-c3ccccc3)c2c1	60%	22
42	O=C(Nc1ccc([N+](=O)[O-])cc1)Nc1ccc2c(c1)C(=O)OC2	3%	-2
43	COc1ccc(/C=C/C(=O)NCC2COc3ccccc3O2)cc1OC (configuration not stated)	-16%	-8
44	CN1C2CCC1CC(OC(=O)CCN1CCCC1)C2 (configuration not stated)	-27%	-12
45	O=C(NCCN1CCOC1=O)c1ccc([N+](=O)[O-])cc1	-14%	-6
46	COc1ccc(C(NC(=O)c2ccccc2F)c2ccc(OC)c(OC)c2)cc1OC	0%	-3
47	CC(C)(c1ccccc1)c1ccc(OCC(=O)NCCC(=O)O)cc1	-3%	-17
48	O=C1CC(c2cccc([N+](=O)[O-])c2)Sc2nncn21 (configuration not stated)	17%	6
49	COC(=O)CC1=Nc2ccccc2NC(=O)C1	-19%	-12
50	Cc1ccc(S(=O)(=O)N2CCN(C(=O)CSc3nnc4sc5ccccc5n34)CC2)cc1	6%	-1

A different layout for some results above:
[47] CC(C)(c1ccccc1)c1ccc(OCC(=O)NCCC(=O)O)cc1
  motility: -3%; motility viability: -17

[49] COC(=O)CC1=Nc2ccccc2NC(=O)C1
  motility: -19%; motility viability: -12

[45] O=C(NCCN1CCOC1=O)c1ccc([N+](=O)[O-])cc1
  motility: -14%; motility viability: -6

[41] Cc1ccc2nc(N/N=C\c3ccc([N+](=O)[O-])o3)nc(-c3ccccc3)c2c1
  motility: 60%; motility viability: 22

(further entries)
entry	molecule	motility	motility viability
51	O=C(OCc1c(Cl)cccc1Cl)c1cccc(-c2nnc(-c3ccccc3)o2)c1	-5%	-3
52	CC(=O)Nc1cccc2ccc(O)cc12	-20%	-15
53	O=C1NC(Nc2nc3ccccc3s2)(C(F)(F)F)C(=O)N1c1ccccc1 (configuration not stated)	15%	16
54	CN(CC(=O)Nn1cnnc1)S(=O)(=O)c1cc(Cl)ccc1Cl	-4%	-3
55	O=C(Nc1ccccc1N1CCOCC1)c1ccc(-c2ccc(Br)cc2)o1	1%	-1
56	CCOC(=O)Cc1csc(-c2ccccc2F)n1	14%	-2
57	O=C(NC(=S)c1cccc2ccccc12)N1CCCCC1	-3%	-6
58	Cc1nc(-c2cccs2)c(CC(=O)O)s1	4%	-4
59	O=C(CNC(=O)c1ccc(Cl)cc1)c1ccccc1	-21%	-11
60	CC12CN(C(=O)c3ccc(I)o3)C3(C#N)CC1CCC23C (configuration not stated)	12%	4

The results go on.
entry	molecule	motility	motility viability
61	CCC(=O)Nc1ccc2c(c1)ncn2-c1ccccc1C	6%	-1
62	COC(=O)c1c(-c2cccnc2)csc1NC(=O)c1cc(C)on1	5%	0
63	COc1ccc(CCN)c2ccccc12	11%	2
64	CCOC(=O)c1sc(NC(=O)CSc2nc3sc4c(c3c(=O)n2C)CCCC4)nc1C	0%	-4
65	O=C(NCc1ccco1)c1ccc(S(=O)(=O)c2cccc(S(=O)(=O)N3CCOCC3)c2)cc1	-13%	-8
66	COc1ccc(NC(=O)Nc2cccc([N+](=O)[O-])c2)cc1Cl	96%	100
67	O=C(NCC1CCCO1)C(=O)Nc1ccc(Cl)c(Cl)c1 (configuration not stated)	11%	19
68	CCOc1ccc(C(O)c2nccn2Cc2ccccc2)cc1 (configuration not stated)	17%	27
69	Cc1cccc(NC(=O)C(NC(=O)c2ccccc2)C(C)C)n1 (configuration not stated)	-7%	-11
70	O=C(c1ccc(Br)o1)n1nnc2ccccc21	1%	5

The results go on.
entry	molecule	motility	motility viability
71	OCCn1c2ccccc2c2cc(Br)ccc21	2%	-2
72	CC1(C(=O)Oc2ccccc2)Cc2ccccc2C(=O)O1 (configuration not stated)	-3%	-3
73	N#Cc1ccc(-c2cccs2)nc1SCC(=O)Nc1nccs1	5%	-5
74	S=C(Nc1ccc2c(c1)OCO2)N1CCN(Cc2ccco2)CC1	8%	20
75	CC(CNC(=O)c1ccccc1F)c1ccc([N+](=O)[O-])cc1 (configuration not stated)	7%	-2
76	COc1ccc(/C=C/C(=O)C2CC2)cc1	16%	0
77	Cc1nc2ccccc2c(=O)n1NC(=O)C1CCCCC1	8%	-1
78	Cc1nnc(SCc2ccc(I)cc2)s1	30%	13
79	COc1ccc(CC(=O)Nc2ccc(C)cc2NC(=O)Cc2ccc(OC)cc2)cc1	7%	30
80	CCCNC(=O)CCCc1nc(-c2ccccc2OCC)no1	6%	0

Next structures follow.
entry	molecule	motility	motility viability
81	CC12CCC(C(=O)Oc3cccc4cccnc34)(CC1=O)C2(C)C (configuration not stated)	22%	18
82	O=C1NC(c2cc3c(cc2Cl)OCO3)Oc2ccccc21 (configuration not stated)	4%	2
83	O=C(c1ccco1)c1cc2cc(Br)ccc2oc1=O	1%	-6
84	O=C(Nc1ccccc1)c1ccccc1OCC(O)Cn1c2ccccc2c2ccccc21 (configuration not stated)	-9%	-7
85	CCCNC(=S)N1CCN(CCc2ccccc2)CC1	12%	-1
86	COCC(C)NC(=O)c1cccc(NC(=O)c2ccccc2)c1 (configuration not stated)	-1%	0
87	O=C(CN1C(=O)CNC1=O)Nc1cccc(C(F)(F)F)c1	-9%	1
88	O=C(O)CCCC(=O)Nc1ccc(C(=O)N2CCOCC2)cc1	7%	19
89	Cc1cc(-n2nc3ccccc3n2)c2oc(SCC(=O)NC(C)c3ccccc3)nc2c1 (configuration not stated)	3%	1
90	Oc1ccc(N2CCN(C(=S)Nc3ccc(Nc4ccccc4)cc3)CC2)cc1	-3%	-3

Other entries:
entry	molecule	motility	motility viability
91	Cc1ccnc(NC(=S)Nc2cccc([N+](=O)[O-])c2)c1	3%	36
92	Cc1c(C2(O)C(=O)Nc3ccc(F)cc32)c(=O)n(-c2ccccc2)n1C (configuration not stated)	10%	-7
93	O=C(O)c1cccc(-n2ncc(Cl)c(Cl)c2=O)c1	3%	1
94	CCC(=O)NC(=S)Nc1cccc(Cl)c1N1CCCC1	-54%	-16
95	CCc1nnc(SCC(=O)Nc2cccc([N+](=O)[O-])c2)o1	17%	32
96	O=c1oc(/C=C/c2ccc([N+](=O)[O-])cc2)nc2cc(Cl)ccc12	16%	5
97	O=[N+]([O-])c1ccc(Oc2ccc(Br)cc2)cc1	12%	0
98	NC(=O)c1ccccc1NC(=O)/C=C/c1ccc(Cl)cc1	30%	15
99	CC(C)=C1C2CCC1C(C(=O)NCCc1cccc(Cl)c1)C2C(=O)O (configuration not stated)	4%	-4
100	O=C(OCc1ccc([N+](=O)[O-])cc1)C1CCN(S(=O)(=O)c2cccc3cccnc23)CC1	-10%	-5

Source: PubChem
